LASV entry inh: inhibitors of Lassa virus binding or cell entry. Potency, µM (highest dose often 37.9 µM), without a hit: top-dose activity change, negative = inhibition, hits mostly inhibitors. Lassa virus pseudotype entry inhibition, cell reporter; control for the full effect not named in the record. 300,000 tested, 1.2% active; active means well fitted inhibition curve with a large enough effect; inconclusive means small, poorly fitted or top-dose-only effect, or effect the other way; inactive means flat fitted curve, though single readings scatter; tested in HEK293 cells; also: % is scaled to controls: 0 for no effect and ±100 for the full control effect; nearly all actives have a fitted effect of over 50% in size; luciferase read-out
Marburg entry inh: Marburg virus entry inhibition; Marburg virus pseudotyped entry inhibition, cell reporter; control for the full effect not named in the record; about a third of the inactives were read at about 46 µM; Potency, µM (series often up to 37.8 µM), for the others: at the top dose activity change, negative = inhibition, hits mostly inhibitors; 300,000 tested, 1.8% active; AID 540276; active = well fitted inhibition curve with a large enough effect; inconclusive = small, poorly fitted or top-dose-only effect, or effect the other way; inactive = flat fitted curve, though single readings scatter; tested in HEK293 cells; about a fifth of its hits are not listed in these tables; also: % is scaled to controls: 0 for no effect and ±100 for the full control effect; luciferase read-out
Cruzain inh noDet: blocks cruzain activity in detergent-free assay | 200,000 tested, 2.3% active | P25779 | purified cruzain, Z-FR-AMC fluorescence, no detergent | Potency, µM, inactives show max response, negative = inhibition, usual class: inhibitors;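 also: plate controls were enzyme without inhibitor for no effect and buffer without enzyme for full effect; nearly all actives have a fitted effect of over 40% in size; top concentration of the series not given in the record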
Target sequence (P25779 123-467 limits assumed): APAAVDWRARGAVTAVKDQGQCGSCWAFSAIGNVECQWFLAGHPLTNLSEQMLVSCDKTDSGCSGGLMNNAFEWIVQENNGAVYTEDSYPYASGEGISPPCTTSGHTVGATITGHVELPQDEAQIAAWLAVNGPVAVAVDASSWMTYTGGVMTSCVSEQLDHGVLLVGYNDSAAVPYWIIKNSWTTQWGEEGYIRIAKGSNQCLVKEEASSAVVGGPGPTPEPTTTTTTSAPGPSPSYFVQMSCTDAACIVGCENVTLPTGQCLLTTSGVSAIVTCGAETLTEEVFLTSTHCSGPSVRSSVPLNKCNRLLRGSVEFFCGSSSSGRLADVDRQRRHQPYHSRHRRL
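Purified cruzain at 1.5 nM, pre-incubated 15 min with compound at room temperature in 100 mM sodium acetate pH 5.5, 5 mM DTT, 0.00005% Triton X-100. Reaction started with 2 uM Z-FR-AMC; AMC fluorescence increase over 60 s gives rate.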
Cruzain Triton: blocks cruzain activity in presence of Triton detergent | P25779 | purified cruzain, Z-FR-AMC fluorescence, 0.01% Triton | Potency, µM, without a hit: max response, negative = inhibition, most hits filed as inhibitors | 200,000 tested, 0.43% active | AID 1478;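 also: plate controls were neutral wells for no effect and buffer without enzyme for full effect; nearly all actives have a fitted effect of over 40% in size; top concentration of the series not given in the record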
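Read-out: AMC fluorescence (360 nm excitation, 450 nm emission), four reads over 2 min, first-to-third difference used. Conditions: cruzain 1.5 nM, Z-FR-AMC 2 uM, pH 5.5 acetate, 5 mM DTT, 0.01% Triton X-100.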
RE007 growth inh: less growth of the S. pombe RE007 Vpr strain; Potency, µM (titrated, usually from 92.2 µM), without a hit: top-dose activity change, negative = less growth; S. pombe RE007 Vpr strain, BacTiter-Glo ATP luminescence, 24 h; control for the full effect not named in the record; 360,000 tested, 0.21% active; AID 651644; active = well fitted falling curve with a large enough effect; inconclusive = small, poorly fitted or top-dose-only effect; inactive = no such curve, though single readings can be large or run the other way;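 also: % is scaled to controls: 0 for no effect and ±100 for the full control effect; nearly all actives have a fitted effect of over 50% in size; the assay follows cell death caused by Vpr and the record does not say whether a fall means rescue or toxicity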
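Fission yeast strain RE007, carrying one chromosomally integrated HIV-1 vpr copy, was seeded at OD 0.01 in PMG+AL medium with 23 nL pinned compound. After 24 h at 30 °C and 99% humidity, viability was read by BacTiter-Glo luminescence.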
2A StopGo: FMDV 2A StopGo reporter, luciferase signal. human cells with a luciferase reporter of 2A StopGo recoding; control for the full effect not named in the record. Potency, µM (highest dose often 57.9 µM), inactives show at the top dose signal change, negative = less light. 410,000 tested, 1.2% active. AID 1159524; active = well fitted falling curve with a large enough effect; inconclusive = small, poorly fitted or top-dose-only effect; inactive = no such curve, though single readings can be large or run the other way; tested in HEK293T cells; also: % is scaled to controls: 0 for no effect and ±100 for the full control effect; nearly all actives have a fitted effect of over 45% in size; luciferase light after 4 h
SARS PLpro yeast: SARS-CoV PLP inhibition in yeast | Potency, µM (titrated, usually from 32.9 µM), for inactives: at the highest dose activity, positive = growth rescue | 330,000 tested, 0.19% active | S. cerevisiae expressing SARS-CoV PLpro, growth rescue; control for the full effect not named in the record; active means well fitted rising curve with a large enough effect; inconclusive means small, poorly fitted or top-dose-only effect; inactive means no such curve, though single readings can be large or run the other way; also: 0% is about no effect; nearly all actives have a fitted effect of over 55% in size; growth read by luminescence after 48 h
NS1 inh: blocks influenza NS1 protein function; S. cerevisiae slowed by influenza A NS1, growth recovery by OD600; Potency, µM (highest dose often 46.1 µM), inactives show at the highest dose activity, positive = more growth; 270,000 tested, 0.4% active; active means well fitted rising curve with a large enough effect; inconclusive means small, poorly fitted or top-dose-only effect; inactive means no such curve, though single readings can be large or run the other way; also: nearly all actives have a fitted effect of over 50% in size
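OD600 was taken as the measure of yeast growth restored by compound in an NS1-expressing S. cerevisiae strain. Cells had been washed out of glucose medium and diluted 1:100 into galactose -URA medium, pH 6.0.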
* marks the source's active call; other numbers are inactive results; ? = inconclusive; nt = no result given; & = joins results of further samples; ! = a repeat was not active; [ ] = dose if it differs, or a comment. Unless noted, calls follow the shape of the dose curve; as a rule, active = well fitted curve in the direction sought with a large enough effect; inconclusive = small, poorly fitted or top-dose-only effect, or another doubt; inactive = no such curve, though single readings can be large; an effect the other way counts as inactive or inconclusive. Potency is read from the fitted curve at half-maximal effect. Not a hit list, and some 4.7% of all compounds hit somewhere here.

SMILES	LASV entry inh	Marburg entry inh	Cruzain inh noDet	Cruzain Triton	RE007 growth inh	2A StopGo	SARS PLpro yeast	NS1 inh
Cc1c(OCc2nn[nH]n2)ccc2c(-c3ccccc3)cc(=O)oc12	4%	3%	-3%	-4.9%	11%	-1%	0%	6%
Cc1ccc(-n2c(O)c(C=NCc3ccccn3)c(=O)[nH]c2=S)cc1	nt	nt	nt	nt	-11%	-23%	0%	-4%
CCC(Oc1nc2ccccc2nc1-c1ccccc1NC(C)=O)C(=O)c1ccccc1 (stereo not given)	18µM*	-8%	-6%	-6.3%	12%	-15%	2%	9%
Cc1cccc(OCCNc2ccc(C(F)(F)F)cc2[N+](=O)[O-])c1	?	-1%	-8%	-11%	12%	56%[activator]	15%	3%
CC1CCN(CC(=O)N2CCCc3c2c(=O)oc2ccc(OCc4ccccc4)cc32)CC1	0.63µM*!	7.1µM*	2%&11%	-7.5%&-1.1%	1%	?	4%[6.58 µM]	-1%
Cc1nc2ccccc2c(C(=O)O)c1-c1ccccn1	0%[46.1 µM]	17%[46.1 µM]	nt	nt	-12%	9%	nt	nt
Cc1ccc(CN2CCC3CCC(C3)C2)c(O)c1 (stereo not given)	6%	?	nt	nt	-6%	-13%	nt	nt
O=C(Nc1nc2c(s1)CCCC2)Oc1ccccc1	?	14%[46.1 µM]	?	-2.0%	-7%	39%[activator]	2%	1%
CCN(CCCNC(=O)CNC(=O)c1nn(-c2ccc(OC)cc2OC)c(=O)c2ccccc12)c1cccc(C)c1	?	-14%[46.1 µM]	nt	nt	38%	-29%	-2%	14%
C#Cc1ccc([C@@H]2C=C(C(=O)NC3CC3)O[C@H](OCCCCO)C2)cc1	nt	nt	nt	nt	-8%	13%	-1%	-1%
COc1cc(/C=C(/C#N)c2nc3ccccc3[nH]2)ccc1Oc1ncccc1[N+](=O)[O-]	?	-15%	?	3.3%	-1%	3%	-10%	14%
COCCN1C(=O)N[C@@H](c2cccs2)C(C(=O)OC)=C1C	4%	17%	-1%&-2%	3.1%&-0.4%	14%	-3%	17%	-32%
COC(=O)/C=C1\NCCSC1=O	16%	21%	1%	-2.1%	0%	0%	-2%	5%
CC(CNC(=O)COc1ccccc1)OC(=O)Nc1ccc(Cl)c(Cl)c1 (stereo not given)	?	-1%	6%	-14%	5%	-22%	-108%	-23%
Cc1cccc(NCc2cc(Cl)ccc2O)n1	-9%	-7%	-5%	-4.0%	-15%	nt	-6%	0%
CCOC(=O)c1nnc(-c2ccccc2)nc1Oc1ccc(Cl)cc1	-10%	-17%	2%	0.9%	-17%	16µM*	5%	0%
O=C(CSc1nc2ccccc2nc1Cc1ccc(F)cc1)Nc1ccc2c(c1)OCO2	-10%[46.1 µM]	nt	-2%	2.8%	nt	5%	nt	nt
CCOc1ccc(NC(=O)c2cnc(Nc3ccccc3OC)c3ccccc23)cc1	6%[46.1 µM]	?	6%	-0.8%	nt	33%[activator]	nt	nt
CCC(=O)c1ccc(OCC(=O)OCC(=O)NC2CCCCCCC2)cc1	nt	nt	nt	nt	-1%	-21%	-3%	-19%
CN(C)CCCNC(=O)/C(=C\c1ccc(-c2ccc(Br)cc2)o1)NC(=O)c1ccccc1	?	?	-9%	-15%	nt	?	12%	2%
Cc1cccc(OCc2nnc(SCn3nnc4ccccc4c3=O)o2)c1	-8%	-6%	10%	0.1%	-14%	-16%	-3%	-49%
COCCCN1C(=O)/C(=C/c2ccc(CNS(=O)(=O)c3ccccc3)o2)C(C(=O)OC)=C1C	13%[46.1 µM]	?	nt	nt	21%	30%[activator]	0%	4%
COc1cccc(C(=O)Nc2ccc(-n3nncc3-c3ccc(Br)cc3)cc2)c1OC	2%[46.1 µM]	nt	-8%	-1.2%	nt	-27%	nt	nt
COc1ccc(NC(=S)N2CCN(C(=O)c3ccco3)CC2)cc1OC	15%	4%	nt	nt	?	-8%	-3%	-4%
O=C(CCCn1c(SCc2ccccc2F)nc2ccccc2c1=O)NCC1CCCO1 (stereo not given)	17%[46.1 µM]	-30%[46.1 µM]	nt	nt	18%	-15%	1%	nt

(next part)
SMILES	LASV entry inh	Marburg entry inh	Cruzain inh noDet	Cruzain Triton	RE007 growth inh	2A StopGo	SARS PLpro yeast	NS1 inh
Cc1nonc1C1CCCN1Cc1cn[nH]c1-c1ccc(-c2ccccc2)cc1 (stereo not given)	nt	nt	nt	nt	-27%	-14%	0%	23%
CC1(c2ccc3ccccc3c2)NC(=O)NC1=O (stereo not given)	nt	nt	nt	nt	4%	-13%	-1%	-3%
COc1cc(/C=N/NC(=O)C2C3CCCCC32C)cc(Br)c1O (stereo not given)	?	-26%	3%	-5.9%	11%	-15%	19%	12%
CCOC(=O)C(=O)Nc1cc(C)nn1-c1nc2ccccc2[nH]1	-12%	-9%[46.1 µM]	nt	nt	-19%	-4%	0%	0%
Cc1cc(OC(=O)c2ccc3ccccc3c2)c([N+](=O)[O-])c(=O)[nH]1	9%[46.1 µM]	?	nt	nt	-5%	32%[activator]	-1%	nt
O=C(Nc1nccs1)c1ccc2nccnc2c1	?	4%	1%	1.5%	-1%	44%[activator]	-2%	-125%
O=C1NC(=O)C(CCc2ccncc2)(Cc2ccc([N+](=O)[O-])cc2)C(=O)N1	3%	?	4%	-3.1%	5%	-7%	22%	11%
CC(=O)c1cccc(NC(=O)CSc2nnc3ccc(-c4ccc(Br)cc4)nn23)c1	12%[46.1 µM]	nt	2%	0.6%	nt	2%	nt	nt
Cc1ccc(N/N=C(/Sc2nnnn2-c2ccccc2)C(=O)c2ccccc2)cc1	-5%	-5%	32µM*	-5.2%	7%	18%	2%	?
O=c1[nH]n2c(=O)c3c([nH]c2c1N=Nc1cccc(Cl)c1)CCCC3	7%	7%	-21%	-14%	-5%	-29%	-6%	-5%
O=C(C1CC1)N1CCc2[nH]c3ccccc3c2C1	12%	9%	-10%	-0.8%	-7%	-11%	-23%	-9%
COc1ccc(Cn2cccc(NC(=O)Nc3ccc(F)cc3)c2=O)cc1	nt	nt	nt	nt	2%	-30%	-1%	-8%
C=CCn1c(SCC(=O)Nc2ccc(F)cc2)nnc1-c1cnccn1	?	9%[46.1 µM]	nt	nt	-6%	-6%	1%	-9%
COc1ccc(/C=N/Nc2ncnc3c2[nH]c2ccc(C)cc23)c(OC)c1OC	?	-16%[46.1 µM]	nt	nt	3%	0%	-1%	3%
Cc1cc(-n2c(=O)c(C#N)cc3c(=O)n4ccccc4nc32)no1	16%	-12%	?	?	0%	5%	5%	15%
COc1ccc(-c2coc3c2c(C)cc2oc(=O)cc(C)c23)cc1	4%[46.1 µM]	1%[46.1 µM]	4%	-2.6%	nt	0%	nt	nt
CCN(CC)C(=O)CSc1ncnc2c1cnn2-c1ccccc1	-26%	-17%	11%	-3.5%	-16%	-9%	9%	-8%
CCOC(=O)c1ccc(NC(=S)NCCCN2CCOCC2)cc1	nt	nt	nt	nt	-15%	-10%	0%	1%
COc1ccccc1N(C)S(=O)(=O)c1ccc(C(=O)Nc2ccc(N3CCOCC3)cc2)cc1	?	?	nt	nt	4%	40µM*	0%	-7%
Cc1cccc(/C=N/NC(=O)c2ccc(NC(=O)c3cccc(Cl)c3)cc2)n1	18%[46.1 µM]	-20%[46.1 µM]	nt	nt	-11%	-10%	-2%	6%
COc1cc(NC(=O)c2noc3c2CC(C(C)(C)C)CC3)cc(OC)c1OC (stereo not given)	5%[46.1 µM]	-14%[46.1 µM]	?	-5.7%	nt	-11%	nt	nt
N#C/C(=C\c1cccc([N+](=O)[O-])c1)C(=O)NCC1CCCO1 (stereo not given)	nt	nt	nt	nt	-4%	-22%	-2%	-3%
CCc1ccccc1NC(=O)COC(=O)c1cccs1	2%	-3%[46.1 µM]	nt	nt	20%	-2%	-3%	-15%
OCCC1CN(CCCn2cccn2)CCN1C1CCCCC1 (stereo not given)	-20%	-1%[46.1 µM]	nt	nt	-9%	-5%	1%	-2%
CCC(=O)N1c2ccccc2CC1C(=O)NCCN1CCN(c2cccc(C(F)(F)F)c2)CC1 (stereo not given)	-3%[46.1 µM]	nt	0%	-1.3%	nt	-23%	nt	nt

(list continues)
SMILES	LASV entry inh	Marburg entry inh	Cruzain inh noDet	Cruzain Triton	RE007 growth inh	2A StopGo	SARS PLpro yeast	NS1 inh
Cc1ccc(NC(=O)NC(C)c2c(-n3cccc3)sc(C)c2C)c(C)c1 (stereo not given)	nt	11µM*	-11%	-3.1%	nt	?	nt	nt
Cc1ccccc1NC(=O)c1nn(C)c(C(=O)Nc2ccccc2C)c1[N+](=O)[O-]	nt	nt	nt	nt	-11%	-11%	-1%	-6%
COc1cc2c(cc1OC)C(C)N(C(=O)[C@@H](NC(=O)c1ccccc1)C(C)C)CC2 (stereo not given in full)	?	?	nt	nt	46%	-19%	16%	-2%
CCOc1ccccc1C(=O)Nc1cc(Cl)ccc1O	11%	-16%	-12%	-8.3%	-27%	?	-22%	-86%
COCCNC(=O)/C(C#N)=C/c1cc(Br)c(O)c(OC)c1	-1%	-2%[46.1 µM]	nt	nt	-15%	-4%	3%	nt
O=C(CC(Cc1ccccc1)C(=O)O)Nc1ccc(Cl)c(Cl)c1 (stereo not given)	19%[46.1 µM]	9%[46.1 µM]	nt	nt	15%	-10%	3%	4%
O=C(c1ccc2c(=O)n(Cc3ccco3)c(=S)[nH]c2c1)N1CCN(c2ccccc2)CC1	-5%	-9%	-9%	-3.4%	6%	-25%	-5%	-5%
CC(C)c1ccc(C2CC(c3ccc(Br)cc3)=NN2C(N)=S)cc1 (stereo not given)	?	?	?	?	-2%	19%	15%	19%
COc1ccccc1NC(=O)c1sc2nc(C)c(C(=O)Nc3ccc(C)cc3C)c(-c3ccco3)c2c1N	5%[46.1 µM]	?	6%	-0.6%	nt	-7%	nt	nt
CN1CCN(C(=O)C2CCC(C)(C(=O)O)C2(C)C)CC1 (stereo not given)	28%	22%[46.1 µM]	nt	nt	0%	-11%	0%	2%
Cc1nn(-c2ccccc2)c(N2CCCC2)c1/C=N/NC(=O)c1ccccc1O	?	?	0%	-10%	3%	0%	-4%	-23%
